From PubChem BioAssay
OX1R antag – human HCRTR1 antagonism; CHO/OX1R cells, Fluo-8 calcium fluorescence, orexin A; inhibition, % at 5 µM; hit rate 0.43% among 330,000; AID 434989;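 active means inhibition above its plate's threshold, mean inhibition of all tested compounds on the plate plus 3 SD, cut at about 37% in these data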;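 further: 0% = orexin A challenge wells and 100% = SB-334867-A antagonist wells; not every result past the cut was called active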
Target sequence (O43613 whole entry, looked up): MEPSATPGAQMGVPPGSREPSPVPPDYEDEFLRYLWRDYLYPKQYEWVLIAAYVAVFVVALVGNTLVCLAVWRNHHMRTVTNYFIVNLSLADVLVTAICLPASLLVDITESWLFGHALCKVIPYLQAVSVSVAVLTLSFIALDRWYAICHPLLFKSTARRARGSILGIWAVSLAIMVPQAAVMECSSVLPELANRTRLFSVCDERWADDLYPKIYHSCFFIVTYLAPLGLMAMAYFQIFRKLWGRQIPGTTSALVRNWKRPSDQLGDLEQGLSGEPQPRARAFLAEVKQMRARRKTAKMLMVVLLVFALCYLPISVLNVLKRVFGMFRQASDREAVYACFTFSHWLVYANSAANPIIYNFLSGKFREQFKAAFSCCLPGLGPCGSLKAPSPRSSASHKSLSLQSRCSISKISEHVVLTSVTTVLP
An asterisk follows results filed as active; & = joins results of further samples. This is a subset; most or all hits stand in other tables.

SMILES	OX1R antag
CCn1c(CNC(=O)c2cccc(C)c2)nnc1SCC(=O)N1CCOCC1	-9.6
Cc1ccc(S(=O)(=O)N(CC(=O)Nc2ccccc2C(=O)O)c2ccc(Cl)cc2)cc1	-43.0
CCC(=O)Nc1nc(CC(=O)Nc2ccccc2)cs1	-9.1
Cc1csc(NC(=O)c2cc3c(C)nn(Cc4ccccc4Cl)c3s2)n1	-23.1
CCC1CCCCN1C(=O)CCS(=O)(=O)c1ccccc1 (configuration not stated)	-11.8
O=C(c1ccco1)N1CCN(S(=O)(=O)c2ccc3c(c2)CCN3C(=O)C2CC2)CC1	-30.9
CCS(=O)(=O)c1c([N+](=O)[O-])ncn1C	-2.1
CCOc1ccccc1Nc1ncnc2c1cnn2-c1ccccc1	-32.1
CC1Cc2ccccc2N1C(=O)C12CCC(C)(C(=O)C1)C2(C)C (configuration not stated)	-28.9
COc1ccc(NC(=O)Nc2ccc(Br)c(C)c2)cc1	4.7
CCCOc1ccc(C(=O)c2ccccc2C(=O)O)cc1OCCC	-2.7
CN(C)CCOC1c2ccccc2CSc2ccccc21 (configuration not stated)	-20.1
Cc1cc(-c2cccnc2)c(C#N)c(SCC#N)n1	-9.5
Nc1cc(-c2ccccc2)nn1S(=O)(=O)c1ccc(F)cc1	-8.4
COc1ccc(CCNC(=O)c2cc3cc(F)ccc3nc2C)cc1OC	-6.2
CN(Cc1ccccc1)c1nc2c(c(=O)[nH]c(=O)n2C)n1CCCc1ccccc1	-28.5
O=C(O)COc1ccccc1/C=N/NC(=O)c1cccc(S(=O)(=O)Nc2cccc(Cl)c2)c1	-16.3
CCOc1ccc(NC(=S)NC(=O)/C=C/c2ccc(C)cc2)c([N+](=O)[O-])c1	-7.8
Cc1[nH]n2c(=O)cc(-c3ccc([N+](=O)[O-])cc3)nc2c1-c1ccccc1	-6.7
Cc1sc2nc(CN(C(=O)NCc3ccccc3)C3CCCC3)[nH]c(=O)c2c1C	-20.0
Cc1cc(C(=O)CCl)c(C)n1-c1cccc([N+](=O)[O-])c1	-4.6
CCOC(=O)C1=C(C)Nc2sc(C(=O)c3ccc(F)cc3)c(N)c2C1c1ccc(C(=O)OC)cc1 (configuration not stated)	-12.9
COC(=O)C1=C(C)N(c2ccc(C)c(C)c2)/C(=C/c2ccco2)C1=O	-9.4
CC(CCc1ccccc1)NCc1ccncc1 (configuration not stated)	3.6
Cn1c(CNS(=O)(=O)c2ccc(Br)cc2)n[nH]c1=S	0.2
Cc1ccc(C(=O)NN2CC(O)=C(c3nc(-c4cccc([N+](=O)[O-])c4)cs3)C2=N)cc1	-11.2
Cc1ccc(N(CC(=O)O)C2SC(=O)NC2=O)cc1 (configuration not stated)	-6.7
Nc1ccc(C(=O)Nc2cccc(NC(=O)c3ccc(N)cc3)c2)cc1	-3.3
COc1ccc(N2CCN(CCCNC(=O)CC3Oc4ccc(C)cc4NC3=O)CC2)cc1 (configuration not stated)	-13.7
Cn1cccc1CC(=O)N/N=C/c1ccc(C(C)(C)C)cc1	-15.7

16 entries from above, set out differently:
Structure | OX1R antag
O=C(c1ccco1)N1CCN(S(=O)(=O)c2ccc3c(c2)CCN3C(=O)C2CC2)CC1 | -30.9
CCS(=O)(=O)c1c([N+](=O)[O-])ncn1C | -2.1
CCOc1ccccc1Nc1ncnc2c1cnn2-c1ccccc1 | -32.1
CC1Cc2ccccc2N1C(=O)C12CCC(C)(C(=O)C1)C2(C)C (configuration not stated) | -28.9
COc1ccc(NC(=O)Nc2ccc(Br)c(C)c2)cc1 | 4.7
CCCOc1ccc(C(=O)c2ccccc2C(=O)O)cc1OCCC | -2.7
CN(C)CCOC1c2ccccc2CSc2ccccc21 (configuration not stated) | -20.1
Cc1cc(-c2cccnc2)c(C#N)c(SCC#N)n1 | -9.5
Nc1cc(-c2ccccc2)nn1S(=O)(=O)c1ccc(F)cc1 | -8.4
COc1ccc(CCNC(=O)c2cc3cc(F)ccc3nc2C)cc1OC | -6.2
CN(Cc1ccccc1)c1nc2c(c(=O)[nH]c(=O)n2C)n1CCCc1ccccc1 | -28.5
O=C(O)COc1ccccc1/C=N/NC(=O)c1cccc(S(=O)(=O)Nc2cccc(Cl)c2)c1 | -16.3
CCOc1ccc(NC(=S)NC(=O)/C=C/c2ccc(C)cc2)c([N+](=O)[O-])c1 | -7.8
Cc1[nH]n2c(=O)cc(-c3ccc([N+](=O)[O-])cc3)nc2c1-c1ccccc1 | -6.7
Cc1sc2nc(CN(C(=O)NCc3ccccc3)C3CCCC3)[nH]c(=O)c2c1C | -20.0
Cc1cc(C(=O)CCl)c(C)n1-c1cccc([N+](=O)[O-])c1 | -4.6

(further entries)
SMILES	OX1R antag
Cc1cccn2cc(CNS(=O)(=O)c3cccc(F)c3)nc12	-14.4
CCCOc1ccccc1Nc1nnc(C)c(=O)[nH]1	-10.2
COc1ccc(NC(=O)CN(c2ccc([N+](=O)[O-])cc2)S(=O)(=O)c2ccccc2)cc1	3.9
CC(=O)c1ccccc1OC(=O)COc1ccc([N+](=O)[O-])cc1	-7.0
COc1ccc2cc(CN(CC3CCCO3)S(=O)(=O)c3ccccc3Cl)c(=O)[nH]c2c1 (configuration not stated)	-18.7
CC(C)(C)c1ccc(C2=NC(=O)C(CC(=O)O)S2)cc1 (configuration not stated)	-21.9
O=C1/C(=C/c2cccnc2)N=C2CCCCCN12	-15.8
COCCN(C(=O)CCC(=O)Nc1cc(C)on1)C(C(=O)NC1CCCC1)c1ccc(C)cc1 (configuration not stated)	-8.2
COc1cccc(NC(=O)COc2ccc(C(=S)N3CCN(C)CC3)cc2OC)c1	-13.1
CNC(=O)CN(Cc1ccccc1)S(=O)(=O)c1ccccc1	-4.2
Cc1nc(NC(=O)C2CCCCC2C(=O)O)sc1C (configuration not stated)	-12.1
Clc1ccc2nnc(Cl)n2n1	-6.2
CCN1CCCC1CNC(=O)c1ccc(N2CCOCC2)c(NS(=O)(=O)c2ccc(OC)cc2)c1 (configuration not stated)	-1.2
COc1ccccc1C(=O)NCCOc1ccc(C(C)(C)C)cc1	-20.0
O=C(/C=C/c1ccco1)Nc1ccc(C(=O)N2CCOCC2)cc1	-16.9
COC(=O)CN(Cc1ccccc1)S(=O)(=O)c1ccc(OC)c(OC)c1	-25.8
O=C(O)CCC(=O)CCC(=O)c1ccc(Cl)cc1	-7.5
CCOC(=O)c1[nH]c(C)c(CCC(=O)O)c1C	-14.8&-5.3
CCC(C)C(NC(=O)c1ccccc1NC(=O)c1ccc(OC)cc1)C(=O)NCCCn1ccnc1 (configuration not stated)	-33.2
COc1ccc(/C=C/C(=O)N2CCC(C(N)=O)CC2)cc1S(=O)(=O)N1CCOCC1	13.0
Cc1cccc(NC(=O)CNC(=O)c2sc3ccccc3c2Cl)n1	-2.5
O=C(c1ccc(F)c(F)c1)N1CCC2(CC1)NCCc1[nH]cnc12	-3.2
Cc1ccc(Cn2ccc(=O)c(Cc3c(Cl)cccc3Cl)c2C)cc1	-8.2
COc1ccc(NC(=O)C2CSC3c4ccccc4C(=O)N23)cc1 (configuration not stated)	-21.2
Cn1nccc1C(=O)Nc1ccn(C23CC4CC(CC(C4)C2)C3)n1	-9.8
COCCNC(=O)C1CC(c2cccc([N+](=O)[O-])c2)=NO1 (configuration not stated)	-4.9
CC1(C)CC(=O)C2=C(C1)OC(N)=C(C#N)C2c1ccc2c(c1)OCO2 (configuration not stated)	0.2
Cc1cc(NC(=O)[C@H](C)NC(=O)c2ccco2)ccc1Br	-30.1
C=CCNC(=O)Nc1ccc2nc(C)sc2c1	-16.6
CCCCn1cnc2c1c(=O)n(CC(=O)c1cc(C)n(C)c1C)c(=O)n2CC(C)C	-28.1
C[N+](C)(C)CCN(Cc1ccc(Cl)cc1)c1ccccn1	-7.9
CCOC(=O)c1[nH]c(C)c(/C(O)=C2\C(=O)C(=O)N(CCCN3CCOCC3)C2c2cccs2)c1C (configuration not stated)	-18.2
Cc1ccc(C(=O)Nc2nnc(-c3ccncc3)o2)cc1	-22.2
Cc1ccc(NC(=O)/C=C/c2ccc(Cl)cc2)nc1	-1.3
O=C(NC1CC1)C1CCN(C(=O)c2ccc(Cl)cc2Cl)CC1	-16.1
COc1ccccc1N(CN1CCCC1=O)C(=O)COc1ccccc1	-14.9
NS(=O)(=O)c1ccc(CCNC(=O)c2cc(=O)[nH]c3ccccc23)cc1	-1.8
Cc1cc(NC(=O)CN2C(=O)c3ccccc3S2(=O)=O)no1	-6.5
COCCN1C(=O)N[C@@H](c2ccccc2)[C@H](C(C)=O)[C@H]1C	-0.2
CC1(C)Cc2c(cnn2-c2ccccc2)C(NC(=O)c2ccc[n+]([O-])c2)C1 (configuration not stated)	-8.9
O=C(NCCS(=O)(=O)NCc1ccccn1)c1ccccc1	-6.5
Clc1ccccc1CN(Cc1ccccc1)c1ncnc2nc[nH]c12	-14.1
CC(=O)c1cc(C(=O)Nc2ccc(C(=O)O)cc2)oc1C	-20.2
C[C@H]1O[C@@H](n2cc(F)c(=O)[nH]c2=O)[C@H](O)[C@@H]1O	-1.6
COc1ccc(CC(=O)OCC(=O)NC(=O)NC(C)C)cc1	-12.4

Part of the list above, field by field.
O=C(NC1CC1)C1CCN(C(=O)c2ccc(Cl)cc2Cl)CC1
  OX1R antag: -16.1
COc1ccccc1N(CN1CCCC1=O)C(=O)COc1ccccc1
  OX1R antag: -14.9

Remaining list, next part
SMILES	OX1R antag
Cc1ccc(NC(=O)C2CCCN(C(=O)c3ccc(Cl)cc3)C2)cc1 (configuration not stated)	-42.3
Cc1cccc(C)c1OC1(c2ccccc2)OC(=O)c2ccccc21 (configuration not stated)	10.8
CC(C)C(C)NC(=O)COc1ncnc2ccccc12 (configuration not stated)	-14.2
CCc1cc(CNC(=O)C2CCC(=O)N(Cc3ccc(Cl)cc3)C2)on1 (configuration not stated)	-11.0
CC1(C)CC(NC(=O)c2ccccc2)CC(C)(C)N1	4.3
Cc1ccccc1N(CC(=O)NCCc1ccccc1)C(=O)CCC(=O)Nc1ccccn1	-27.2
CC(C)c1ccc(NC(=O)[C@H]2CSCN2C(=O)[C@@H]2CCC(=O)N2)cc1	-7.9
CC1=NN(c2ccccc2)C(=O)C1N=Nc1cccc(O)c1 (configuration not stated)	-12.9
Cc1ccc(-n2nc3ccc(N)cc3n2)cc1	-10.9
O=C(N/N=C/c1c(Cl)cccc1Cl)c1ccccc1F	-5.5
C/C(=N\Nc1ccc(Cl)c(C(=O)O)c1)c1cc2ccccc2o1	-10.3
CCOc1ccc2[nH]c(C(=O)N/N=C/c3cccc(OC)c3OC)cc2c1	-12.6
Cc1cc(C)nc(SCc2nnc(SCC(N)=O)n2Cc2ccco2)n1	0.6
Cc1ccc(C(=O)NCCc2nnc3ccc(SCC(=O)N4CCCCC4)nn23)cc1	1.3
O=C(COC(=O)CCC(=O)c1ccc(Cl)cc1)NCC1CCCO1 (configuration not stated)	-11.9
CC1CN(S(=O)(=O)c2ccc(Cl)c(C(F)(F)F)c2)CC(C)O1 (configuration not stated)	-10.5
O=C(c1ccc2c(c1)OCCO2)N1CCN(c2ncc(C(F)(F)F)cc2Cl)CC1	-23.7
O=C(Cc1ccccc1)N/N=C/c1ccc(S(=O)(=O)O)o1	1.2
CC(C)CCNC(=O)c1onc(CSc2ccc(F)c(F)c2)c1C(=O)NCCC(C)C	-21.1
COc1cc(OC)c(OC)cc1CN(C)CC1CCCN(CCc2ccccc2F)C1 (configuration not stated)	-33.5
COc1ccccc1N1CCN(C2CCN(C(=O)c3cc(OC)c(OC)c(OC)c3)CC2)CC1	-20.8
COc1cc(CNCCO)cc(Br)c1OCc1ccccc1	-15.8
COc1ccc(OC)c(-n2cc3c(=O)n(C)c(=O)n(C)c3c2)c1	-23.0
O=C(COC(=O)c1ccc(Br)o1)Nc1cccc(S(=O)(=O)N2CCCCCC2)c1	-17.4
COc1ccc(-c2cc(C(=O)Nc3cc(Br)ccc3O)no2)cc1	-16.7
COc1ccc(NC(=O)CSc2nc(=O)n(CCN3CCOCC3)c3c2CCC3)cc1	-10.5
OC1CN=C2CCCc3c2n(c2ccc(Cl)cc32)C1 (configuration not stated)	-19.8
COc1ccc(CCNC(=O)/C=C/c2ccc(C)cc2)cc1OC	-18.1
Cc1cccc(N2CCN(C(=O)c3cc(=O)[nH]c4ccccc34)CC2)c1C	-20.3
COc1ccc(-c2nc3ccccc3nc2-c2ccc(OC)cc2)cc1	-43.3
C=CCOc1ccc(CNc2ccc(NC(=O)CCC)cc2)cc1OCC	-19.5
Cc1ccc(S(=O)(=O)Nc2ccccc2F)cc1C(=O)NNC(=O)c1csc(N2CCOCC2)n1	-20.8
NC(=O)CC(NC(=O)Cc1cccc2ccccc12)c1ccc(N2CCC(Br)CC2)c([N+](=O)[O-])c1 (configuration not stated)	-22.8
CC(=O)C1=C(c2ccccc2)NC(=O)NC1c1ccccc1 (configuration not stated)	7.1
CN1CCN(c2ccc(S(=O)(=O)Nc3ccccc3)cc2[N+](=O)[O-])CC1	-10.1
COc1cccc(-c2ccc(C#N)c(SCC(=O)NCCc3ccccc3)n2)c1	-14.4
COC(=O)CN=Cc1c(O)n(-c2ccc(Cl)cn2)c(=O)c2ccccc12	-3.5
COC(=O)c1nc(-c2ccccc2)oc1N1CCOCC1	-18.5
Cc1cccc(C(=O)Nc2ccnc(-c3cccnc3)n2)c1	-37.4
Cc1ccccc1C(=O)Nc1ccc2nc3n(c(=O)c2c1)CCC3	-23.1
CCC(=O)Oc1ccc2c(C)c(Cl)c(=O)oc2c1	-7.2
CCC(=O)c1ccc(N2CCN(C(=O)COc3ccc(F)cc3)CC2)c(F)c1	6.6
CCOc1ccc(-c2cc(CCCC(=O)NCCc3ccc(OC)c(OC)c3OC)no2)cc1	-22.9
Cn1c(SCC(=O)NC2CCCC2)nnc1-c1cccs1	-20.2
Cc1nc2c(C)cccn2c(=O)c1NC(=O)c1ccco1	-13.6
CC(=O)c1ccc(N2CCN(CC(=O)Nc3cc(C)on3)CC2)cc1	-20.5
Cc1ccc(C)c(S(=O)(=O)N2CCN(C(=O)CNC(=O)c3ccc4ccccc4c3)CC2)c1	-18.7
COc1cccc(-c2cc(C(=O)Nc3cccnc3)no2)c1	6.6
COc1cccc(CNC(=O)C2CCN(S(=O)(=O)c3ccc(C)cc3)CC2)c1	-15.2
CC(=O)N1CCN(C(=O)c2ccc3c(c2)OCCO3)CC1	-9.1
Cc1cc(C)c(OCCCCn2cnc3ccccc3c2=O)c(C)c1	-31.9
CCOC(=O)c1nc(NCc2ccccc2)sc1C	1.1
COc1ccc(CCNC(=O)CSc2c[nH]c3ccccc23)cc1OC	-7.1
COc1ccc(S(=O)(=O)CC(O)CN2CCCC2=O)cc1 (configuration not stated)	-5.7
